Source: PubChem
TRPV1 PAM: potentiators of human vanilloid receptor 1 (TRPV1) | Q8NER1 | TRPV1-expressing cells, Fluo-8 calcium influx, capsaicin EC20 potentiation; host cell line not named in the record; control for the full effect not named in the record | potentiation, % at 8.33 µM | hit rate 0.02% among 320,000 | AID 540277; active means potentiation above 80%; inconclusive means 30% to 80%; inactive means below 30%; further: 0% is about no effect
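Fluo-8 calcium influx in TRPV1-expressing cells, kinetic read (ex 480/em 520 nm). Compound added and read 3 min for agonist activity, followed by capsaicin at EC20 final and 2 min further read for enhancement.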
TRPML1 inh: human mucolipin-1 channel inhibition. Q9GZU1. TRPML1-inducible cells, Ca2+ dye fluorescence, FDSS; hits give low values; inhibition of EC80 agonist-evoked calcium signal. activity change, negative = inhibition, % (concentration not given with the values). hit rate 0.02% among 390,000; in the data active means activity change below about -50%; inconclusive means about -30% to -50%; inactive means above about -30%;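 further: stimulus is agonist 54-4 at its EC80 concentration; on the % scale 0 is the no-effect control and ±100 the full control effect; compound concentration not given in the record; the text of the record puts the active cut at -80%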
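TRPML1-DL cells, Tet-induced overnight (~16 h, 37 °C) at 1,500 cells/well, were loaded with Ca8 no-wash dye plus quencher for 45-90 min at room temperature. Compounds were pinned during FDSS kinetic reading; agonist 54-4 at EC80 (4 uM final) then added.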
D2 potentiator: positive allosteric modulators of human D2 dopamine receptor; P14416; hit rate 0.23% among 360,000; DiscoveRx D2 beta-arrestin cells, luminescence, 90 min; 100% = 57 uM dopamine signal; potentiation, % (concentration not given with the values); AID 624464; active = potentiation of 50% or more; inconclusive = 30% to 50%; inactive = 30% or less;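 further: compound concentration not given in the record; tested on top of an EC20 dose of dopamine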
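D2 cells co-treated with compound plus 50 nM dopamine (EC20) for 90 min at 37 deg C to detect potentiation. Beta-arrestin recruitment was read as enzyme-fragment luminescence after 1 h at ambient temperature. Full response was set by 57 uM dopamine.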
TRPML1 ag: activates the human TRPML1 channel | Q9GZU1 | TRPML1-expressing cells, Ca2+ dye fluorescence, FDSS; host cell line not named in the record; reference of the full effect not given here | activation, % (concentration not given with the values) | hit rate 0.12% among 410,000; in the data active = activation above about 50%; inconclusive = about 30% to 50%; inactive = below about 30%; further: 0% is about no effect; the text of the record puts the active cut at 80%
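Tet-induced TRPML1-DL cells, 1,500 per well, cultured overnight, were loaded with a no-wash Ca2+ dye for 45–90 min. Calcium fluorescence was recorded on the FDSS for 110 s after compound addition, before the EC80 agonist (4 uM 54-4) was added.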
CtBP-E1A inh: blocks the CtBP interaction with E1A | AlphaScreen GST-E1A/His-CtBP binding, 1536-well; hits give low values; control for the full effect not named in the record | activity change, % (concentration not given with the values) | hit rate 0.49% among 340,000; in the data active means activity change below about -65%; inconclusive means about -30% to -65%; inactive means above about -30%; further: on the % scale 0 is the no-effect control and ±100 the full control effect
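Steps: dispense buffer (Tris pH 8.0, NaCl 300 mM, TCEP 1 mM, BSA, Tween 20); add 5X protein mix (GST-E1A, His-CtBP, 125 nM each); pin 23 nL compound; 2 h at 37 °C, dark; add 5X beads (50 ug/mL); 1 h; read.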
Six1-Eya2 blk: blocks human Six1 binding to Eya2; activity change, % (no concentration beside the values); Q15475+O00167; AlphaScreen GST-Six1/His-Eya2 binding, biochemical; hits give low values; control for the full effect not named in the record; hit rate 0.56% among 360,000; in the data active = activity change below about -65%; inconclusive = about -30% to -65%; inactive = above about -30%; further: on the % scale 0 is the no-effect control and ±100 the full control effect; compound concentration not given in the record
Target sequence (O00167 whole entry, looked up): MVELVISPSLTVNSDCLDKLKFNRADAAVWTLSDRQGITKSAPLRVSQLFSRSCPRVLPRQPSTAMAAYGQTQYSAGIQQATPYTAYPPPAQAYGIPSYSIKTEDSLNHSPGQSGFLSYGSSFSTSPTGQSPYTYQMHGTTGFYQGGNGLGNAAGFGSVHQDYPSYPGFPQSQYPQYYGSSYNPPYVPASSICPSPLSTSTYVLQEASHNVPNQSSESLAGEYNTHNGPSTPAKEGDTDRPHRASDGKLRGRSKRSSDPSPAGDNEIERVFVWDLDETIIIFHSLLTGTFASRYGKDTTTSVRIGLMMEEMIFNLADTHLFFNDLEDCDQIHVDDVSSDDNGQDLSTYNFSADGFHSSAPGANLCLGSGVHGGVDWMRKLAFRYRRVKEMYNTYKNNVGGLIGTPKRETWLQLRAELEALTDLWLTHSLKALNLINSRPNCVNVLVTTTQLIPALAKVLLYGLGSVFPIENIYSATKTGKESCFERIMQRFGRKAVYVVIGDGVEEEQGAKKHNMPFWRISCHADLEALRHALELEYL
Target sequence (Q15475 whole entry, looked up): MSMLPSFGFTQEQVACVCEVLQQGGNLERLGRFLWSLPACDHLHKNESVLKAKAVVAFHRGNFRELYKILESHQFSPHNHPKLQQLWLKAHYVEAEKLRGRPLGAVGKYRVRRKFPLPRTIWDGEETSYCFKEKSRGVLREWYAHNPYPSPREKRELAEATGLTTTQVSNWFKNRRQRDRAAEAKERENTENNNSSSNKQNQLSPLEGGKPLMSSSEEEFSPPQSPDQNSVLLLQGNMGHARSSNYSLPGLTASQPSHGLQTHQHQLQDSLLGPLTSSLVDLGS
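Compounds are tested against tagged Six1 and Eya2 proteins bridged by glutathione donor and nickel acceptor beads; after a one-hour incubation at 37 °C without light, AlphaScreen emission is recorded.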
Numbers without * were called inactive; ? = inconclusive; · = not tested or not shown; & = joins results of further samples.

molecule,TRPV1 PAM,TRPML1 inh,D2 potentiator,TRPML1 ag,CtBP-E1A inh,Six1-Eya2 blk
O=C(NCc1ccc2c(c1)OCO2)C(=O)NCC1OCCCN1S(=O)(=O)c1ccc(F)cc1 (stereo not drawn),3,-9,3,-0.5,8,1
C[C@H](CO)N1C[C@H](C)[C@@H](CN(C)S(=O)(=O)c2cccc(C#N)c2)OCc2cnnn2CCCC1=O,·,-8,-2,0.4,-18,7
O=c1c(Cl)c(N2CCN(c3ccc(F)cc3)CC2)cnn1C12CC3CC(CC(C3)C1)C2,13,-16,-12,2.2,3,-3
COc1ccc(/C=C/C(=O)OCC(=O)Nc2cccc(C(C)=O)c2)cc1,-13,-10,0,1.2,-3,0
CCN(CC)Cc1c(O)c(Cl)cc2c(C)c(C)c(=O)oc12,-2,-1,2,-0.8,0,4
CCCn1c(C)cc(C(=O)COC(=O)c2ccc(Cl)c(S(=O)(=O)N3CCCC3)c2)c1C,10,24,-9,0.9,-13,-18
COC(=O)[C@H](CCSC)NC(=O)Cn1cc(C)c(=O)[nH]c1=O,·,-7,-5,-0.2,0,-1
COc1cc(C(=O)N2CCOC23CCN(Cc2ccccc2)CC3)cc(OC)c1OC,·,2,-8,0.1,6,-2
C=CCN1CC(=O)N2C(C)c3[nH]c4ccccc4c3C[C@H]2C1=O (stereo partly drawn),-13,16,-8,1.2,·,-1
COC(=O)c1cc(Br)c(=O)n(-c2ccc(F)cc2)c1,-14,-12,-6,-0.8,5,1
Cc1ccnc(NC(=O)c2ccc(N3C(=O)CCC3=O)cc2)c1,8,-8,-1,-0.7,0,6
COC(=O)c1sc2ncn(CC(=O)N(C)C3CCCCC3)c(=O)c2c1C,4,-19,-12,-0.5,15,4
CCOC(=O)c1ccc(NC(=O)c2nc[nH]c2C(=O)NCCCCNC(=O)c2[nH]cnc2C(=O)Nc2ccc(C(=O)OCC)cc2)cc1,?,0,0,-0.5,4,12
O=C(CSc1nnc(NC(=O)c2ccc(F)cc2F)s1)NC1CCCC1,17,-12,-6,-0.3,-1,-4
Cc1cnn(CCC(=O)NNC(=S)Nc2cccc(Cl)c2)c1,?,-8,-27,-0.5,8,3
O=C(c1cc2ccccc2o1)N1CCN(S(=O)(=O)c2cccs2)CC1,-12,-14,17,-0.5,0,-3
CCOC(=O)C1=C(C)NC2=C(C(=O)CCC2)C1c1ccc(O)c(OCC)c1 (stereo not drawn),-2,21,-2,-0.3,10,-3
O=C(Nc1cccc2cccc(NC(=O)c3ccco3)c12)c1ccco1,3,7,19,0.2,6,-5
COc1ccc(N2CC(C(=O)Nc3nc4ccccc4s3)CC2=O)cc1 (stereo not drawn),-8,-3,-17,0.4,·,-2
CCOc1ccc(S(=O)(=O)N2CCC(C(=O)NCc3ccncc3)CC2)cc1Cl,-25,-12,-5,-0.7,2,9
CN1C(=O)NC(c2ccc(O)cc2)C2=C1CN(c1cccc3ccccc13)C2=O (stereo not drawn),20,36,-4,-0.7,·,11
O=C(CCCN1C(=O)/C(=C/c2cccc(Br)c2)SC1=S)Nc1cccnc1,-1,-11,4,0.0,-8,-21
Cc1ccccc1N1CCN(C(=O)C2CCC(=O)N(C3CCCC3)C2)CC1 (stereo not drawn),-3,0,-3,0.7,5,1
COc1ccc(S(=O)(=O)N/N=c2\oc3c(OC)cccc3cc2S(=O)(=O)c2ccc(C)cc2)cc1OC,-4,2,-10,-0.5,-4,-5
Cc1ccc(S(=O)(=O)CCC(=O)OCc2ccc(Cl)cc2)cc1,-7,-9,0,2.2,9,13
COc1ccc(/C=C2/SC(c3ccc(C)cc3)=NC2=O)cc1OC,2,-7,-13,3.3,-17,-19
CC(C)=C(NC(=O)c1ccccc1)C(=O)Nc1cccc(C(=O)O)c1,-11,1,-4,1.0,·,31
COc1ccc(-c2nc(C#N)c(NCc3ccc(F)cc3)o2)cc1OC,-8,16,-18,0.2,-12,-12
COc1ccc(CCNC(=O)CSc2ccc(-c3cccs3)nn2)cc1,-2,-2,-10,-1.0,5,-1
CC(C)(C)c1nnc(SCC(=O)c2ccccc2)n(N)c1=O,-6,31,-18,-0.1,-2,-7
Cc1ccc(Sc2cc(Cl)nc(N)n2)cc1,20,1,0,0.0,0,8
N#C/C(=C\c1ccc(O)c(O)c1)C(=O)NCCCc1ccccc1,-13,-1,-10,1.9,?,1

Compounds above that have an aryl thioether with sulfur outside any ring:
molecule,TRPV1 PAM,TRPML1 inh,D2 potentiator,TRPML1 ag,CtBP-E1A inh,Six1-Eya2 blk
O=C(CSc1nnc(NC(=O)c2ccc(F)cc2F)s1)NC1CCCC1,17,-12,-6,-0.3,-1,-4
COc1ccc(CCNC(=O)CSc2ccc(-c3cccs3)nn2)cc1,-2,-2,-10,-1.0,5,-1
CC(C)(C)c1nnc(SCC(=O)c2ccccc2)n(N)c1=O,-6,31,-18,-0.1,-2,-7
Cc1ccc(Sc2cc(Cl)nc(N)n2)cc1,20,1,0,0.0,0,8

Next entries
molecule,TRPV1 PAM,TRPML1 inh,D2 potentiator,TRPML1 ag,CtBP-E1A inh,Six1-Eya2 blk
O=[N+]([O-])c1cc(-c2cnc3ccccc3n2)ccc1Oc1ccc(F)cc1,3,69,-3,1.5,-18,-19
O=S(=O)(CCN1CCN(c2ccccn2)CC1)c1ccc(F)cc1,-3,1,0,-0.6,14,4
CC(C)(C)OC(=O)N(CCc1ccccc1)Cc1ccccc1OCc1ccc(NC(=O)C2CCCC2)cc1,·,-22,-7,0.6,5,2
COc1ccc(S(=O)(=O)N2CCCC2C(=O)Nc2ccc(O)cc2)cc1 (stereo not drawn),18,-8,-2,4.0,3,-1
CS(=O)(=O)N(CC(=O)O)c1ccc(Oc2ccccc2)cc1,-3,5,-4,-0.8,7,7
O=S1(=O)N[C@H](Cc2ccccc2)COc2cc(N3CCC[C@H]3CO)ccc21,·,·,·,-0.8,-10,5
N#Cc1c(NC(=O)C(=O)NCCCN2CCOCC2)sc2c1CCCC2,-1,9,-8,1.7,·,-2
CC(=O)Nc1cccc(OCCOc2cccc([N+](=O)[O-])c2)c1,·,10,-16,0.6,-3,1
COC(=O)C(NC(C)=O)(Nc1nc2ccc(C)cc2s1)C(F)(F)F (stereo not drawn),16,35,-17,-1.3,0,-3
COc1ccccc1CNC(=O)C1CCN(Cc2nc(-c3cccc(Cl)c3)oc2C)CC1,-3,3,-13,-0.9,1,4
Cc1cc(C(=O)CN2C(=O)C(=O)N(Cc3ccccc3)C2=O)c(C)n1-c1ccc2c(c1)OCCO2,7,2,-2,0.2,-1,-5
CC1(NC(=O)C2CCCCC2)CCS(=O)(=O)C1 (stereo not drawn),9,-2,0,0.4,-6,4
O=C(Cn1c(=O)n(-c2ccc(F)cc2)c(=O)c2sccc21)c1ccccc1,-4,-11,-10,0.8,-12,5
COc1ccc(NC(=O)CCCC(=O)OCC(F)(F)C(F)F)cc1,?,22,-1,-0.5,2,2
O=C1C=C(c2ccccc2)C[C@@H](c2ccc(Cl)cc2)C1,13,14,-5,2.3,1,25
C=CCN1C(=O)C(Cc2ccc(OC)cc2)S/C1=N/N=C/c1ccco1 (stereo not drawn),3,16,-9,0.5,-1,-1
O=C(COC(=O)c1ccccc1SCC(=O)N1CCCC1)Nc1ccccc1OC(F)F,10,12,-2,0.7,-2,4
CCCCCC(CC(=O)NO)C(=O)NC(C(=O)N1CCCC1CO)C(C)C (stereo not drawn),-26,14,-14,0.6,-5,-1
CCO[C@H]1OC(C(N)=O)=C[C@@H](c2coc3ccccc3c2=O)[C@@H]1CCCO,?,-14,-5,-0.6,3,-10
COc1ccc(OC)c(S(=O)(=O)Nc2cccc3ccc(O)cc23)c1,·,-7,12,-0.3,0,1
O=C(CCC(=O)c1cccs1)Nc1nc2ccccc2s1,·,34,-4,1.4,3,9
COc1ccc(C2Nc3cc(OC)ccc3-n3cccc32)cc1 (stereo not drawn),8,19,2,1.2,71,61
O=C(CSc1nnc(-c2ccccc2)n1C1CCCCC1)Nc1ccc(S(=O)(=O)Nc2ccccn2)cc1,9,12,-20,0.1,-6,-15
Cn1cnc2nc3n(c2c1=O)CCC3,-7,-17,-2,-0.8,-2,4

Taken from above.
D2 potentiator result of COc1ccc(OC)c(S(=O)(=O)Nc2cccc3ccc(O)cc23)c1 : 12
TRPML1 ag result of O=C(COC(=O)c1ccccc1SCC(=O)N1CCCC1)Nc1ccccc1OC(F)F : 0.7

Next results:
molecule,TRPV1 PAM,TRPML1 inh,D2 potentiator,TRPML1 ag,CtBP-E1A inh,Six1-Eya2 blk
CCOC(=O)c1sc(NC(=O)/C=C/c2cnn(C)c2C)c(C(=O)OC(C)C)c1C,6,12,-3,0.6,-2,5
COc1ccc(CCN2C(=O)C3C(C2=O)C2C=CC3C23CC3)cc1OC (stereo not drawn),-1,16,-12,-0.4,1,13
COc1cc(OC)cc(-c2c(C#Cc3ccsc3)c3cc(-c4ccc5cc[nH]c5c4)ccc3n2C)c1,-2,10,-6,-0.1,·,-6
COc1ccc(C(=O)OCC(=O)c2ccco2)cc1[N+](=O)[O-],·,-18,-18,-0.5,0,-3
CCN(c1ccccc1)S(=O)(=O)c1cccc(C(=O)NCc2ccccc2CN2CCOCC2)c1,-5,12,-28,1.7,5,-10
Cc1ccc(S(=O)(=O)Nc2cccc3c2CCCC3)cc1,-8,3,2,3.3,5,10
O=C(OCC(=O)N1CCc2ccccc21)c1n[nH]c(=O)c2ccccc12,12,-3,-1,5.2,4,5
Cc1c(O)ccc2c(CN3CCN(Cc4ccccc4)CC3)cc(=O)oc12,-2,-4,-13,1.3,-11,-12
COc1ccc(CCNCC(O)Cn2ccc3ccccc32)cc1OC (stereo not drawn),-17,19,-27,-0.5,·,-2
S=c1nc2ccccc2c2nc(-c3ccccc3Cl)[nH]n12,8,5,-20,-0.1,·,0
OC(COc1cccc2ccccc12)CN1CCN(c2ccc(Cl)cc2)CC1 (stereo not drawn),-2&4,10,-12,3.6,·,-28
Oc1ccc(Nc2nc(-c3ccc(Cl)cc3)nc3ccccc23)cc1,-18,31,·,1.0,·,·
CC(C)NC(=O)C1CCN(Cc2cccc(OCc3ccccc3)c2)CC1,·,-17,-15,0.1,-19,9
CCOc1ccccc1N(CC(=O)NC1CCCCC1)C(=O)CNC(=O)c1ccco1,-5,3,-15,-0.3,5,0
O=C(N/N=C/c1coc2ccccc2c1=O)c1cc(O)cc(O)c1,11,34,2,1.0,-3,-7
Cc1ccc(CCNC(=O)CN(C)S(=O)(=O)c2ccc3c(c2)c(=O)n(C)c(=O)n3C)cc1,9,1,-5,-0.9,2,-2
COc1ccc(OCCCC(=O)Nc2cc(S(=O)(=O)N3CCCCC3)ccc2C)cc1,-4,-11,-1,0.1,-13,-21

Compounds as they come; overall some 0.95% were active at least once.
